Screening data (PubChem BioAssay)
PINK1 modulator: A Quantitative High throughput Screen to Identify Chemical Modulators of PINK1 Expression | hit rate 0.2% among 410,000 | AID 624263, 2012 | PINK1 immunofluorescence, high-content cytometry, 24 h | Potency, µM (highest dose often 76.6 µM), inactives show at the highest dose activation (PINK1 increase), hits mostly activators; active = well fitted activation curve with a large enough effect; inconclusive = small, poorly fitted or top-dose-only effect; inactive = flat fitted curve, though single readings scatter; cell line not stated here;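 also: % of control where 0% means no effect; nearly all actives have a fitted effect of over 65% in size; a mitochondrial uncoupler was the plate control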
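A stable cell line was treated with compounds at 5 concentrations for 24 hours, with CCCP as control. PINK1 levels and mitochondrial localization were measured by immunofluorescence with mitochondrial, cell and nuclear markers after fixation, read by laser-scanning cytometry.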
ClpP mod: qHTS Assay for Activators of ClpP; purified B. subtilis ClpP, FRET peptide cleavage, 20 min; Potency, µM (series often up to 57.5 µM), inactives show top-dose activity change, negative = active; hit rate 1.9% among 340,000; AID 651965, 2013; active = well fitted falling curve with a large enough effect; inconclusive = small, poorly fitted or top-dose-only effect; inactive = no such curve, though single readings can be large or run the other way; also: the source files actives as falling curves though it sought activators and does not explain the sign; nearly all actives have a fitted effect of over 65% in size; many hits overshoot -100%
Target sequence (P80244 whole entry, looked up): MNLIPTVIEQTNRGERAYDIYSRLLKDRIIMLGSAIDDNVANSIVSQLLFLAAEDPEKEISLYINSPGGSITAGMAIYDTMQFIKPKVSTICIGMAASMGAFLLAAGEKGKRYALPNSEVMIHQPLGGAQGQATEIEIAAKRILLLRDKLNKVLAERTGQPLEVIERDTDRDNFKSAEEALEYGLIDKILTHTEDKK
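ClpP 10 microg/mL final, pH 8 Tris/KCl buffer with BSA, glycerol, Tween-20; compound pinned in; FRET-FV substrate; RT 20 min; Ex320/Em430; ΔFRET vs ADEP 5.8 microM, DMSO, no enzyme.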
Numbers without * were called inactive; u = inconclusive. Potency is read from the fitted curve at half-maximal effect.

> CC(=O)NC(C)c1nc2ccccc2n1Cc1ccccc1Cl (stereo not given)
  PINK1 modulator: 1.4%
  ClpP mod: -4.1%
> C[N+]1(CC(=O)c2ccc3ccccc3c2)CCOCC1
  PINK1 modulator: 2.2%
  ClpP mod: -27%
> O=C(Nc1ccc2oc(-c3ccc4ccccc4c3)nc2c1)c1cc(Cl)ccc1Cl
  PINK1 modulator: 5.6%
  ClpP mod: 4.3%
> CCOc1ccc(C(=O)Oc2c(Sc3ccccc3)c(C)nn2C(C)(C)C)cc1OCC
  PINK1 modulator: 1.8%
  ClpP mod: -8.3%
> Cc1ccc2c(c1)c(=O)c(S(=O)(=O)c1ccc(C)c(C)c1)cn2CC(=O)Nc1ccccc1
  PINK1 modulator: 1.2%
  ClpP mod: -9.9%
> Cc1c(C(=O)OCc2ccccc2)[nH]c2c1C(=O)CC(c1ccc(N(C)C)cc1)C2 (stereo not given)
  PINK1 modulator: 2.4%
  ClpP mod: 2.8%
> Cc1cc(C)c2c(CC(=O)Nc3cc(C(F)(F)F)ccc3Cl)coc2c1
  PINK1 modulator: 1.4%
  ClpP mod: 3.0%
> O=C(NCc1cccn1Cc1ccccc1)Nc1cccc(C(F)(F)F)c1
  PINK1 modulator: 8.9%
  ClpP mod: 1.7%
> CCOC(=O)[C@]12CCC=C1N(CCC1=CCCCC1)C(=O)[C@H](CC(=O)N1CCSCC1)C2
  PINK1 modulator: -0.1%
  ClpP mod: 0.4%
> Cc1ccccc1NC(=O)c1sc2nc3c(cc2c1N)CN(Cc1ccccc1)CC3
  PINK1 modulator: 7.7%
  ClpP mod: -11%

> CN1CCN(c2ncnc3c2cnn3-c2cccc(Cl)c2)CC1
  PINK1 modulator: 1.6%
  ClpP mod: -4.0%
> CCOC(=O)c1c(C)[nH]c(CCC(=O)NCc2cccc(OC)c2)c1C
  PINK1 modulator: -0.4%
  ClpP mod: -0.5%
> Cc1cccc(C(=O)Nc2ccc3nc(SCCOc4ccccc4)sc3c2)c1
  PINK1 modulator: 16%
  ClpP mod: u
> Cc1ccc(NS(=O)(=O)c2ccc3[nH]c4c(c3c2)CCCCC4)cc1
  PINK1 modulator: 3.5%
  ClpP mod: -18%
> Cc1ccc(-c2c3c(=O)n(C)c(=O)n(C)c3c3c(C)nc4ccccc4n23)cc1
  PINK1 modulator: 1.7%
  ClpP mod: -14%
> CC(=O)N1c2ccc(S(=O)(=O)NCC3CCC(C(=O)Nc4ccc(C)cc4)CC3)cc2CC1C (stereo not given)
  PINK1 modulator: 3.3%
  ClpP mod: 0.9%
> CCOc1ccc(CNC(=O)CCc2cn(CC)c3ccccc23)cc1
  PINK1 modulator: 4.4%
  ClpP mod: u
> COc1ccc(-c2nc3scc(CCNS(=O)(=O)c4ccc(F)cc4F)n3n2)cc1OC
  PINK1 modulator: 2.0%
  ClpP mod: -3.7%
> CN(C)c1ccc(CNC(=O)c2cc3ccccn3n2)cc1
  PINK1 modulator: -0.6%
  ClpP mod: -3.4%
> COc1cccc(CNC(=O)c2nc(Cn3nc(C)c(Br)c3C)no2)c1
  PINK1 modulator: -0.7%
  ClpP mod: -2.7%

> COc1ccc(CNC(=O)CCc2nc(-c3ccc(C)cc3)no2)c(OC)c1
  PINK1 modulator: -1.0%
  ClpP mod: 0.1%
> CCc1ccccc1NC(=O)CC1Sc2ccc(C(F)(F)F)cc2NC1=O (stereo not given)
  PINK1 modulator: -3.9%
  ClpP mod: 2.6%
> Cc1cc(C)cc(-n2c(SCC(=O)Nc3ccccc3F)nc3c(oc4ccccc43)c2=O)c1
  PINK1 modulator: 0.5%
  ClpP mod: -8.2%
> CCOC(=O)[C@]12CCCC=C1N(Cc1ccc3c(c1)OCO3)C(=O)[C@H](CC(=O)N1CCN(C(=O)c3ccco3)CC1)C2
  PINK1 modulator: 0.1%
  ClpP mod: -3.5%
> CCN1CCC(N(Cc2ccc(F)cc2)C(=O)Nc2ccc(C)c(F)c2)CC1
  PINK1 modulator: 0.7%
  ClpP mod: 0.6%
> Cc1cccc(CCNC(=O)C2CCC(CNS(=O)(=O)c3c(C)cc(C)cc3C)CC2)c1 (stereo not given)
  PINK1 modulator: -1.4%
  ClpP mod: 0.7%
> Cc1cccc(Cn2cnc3c(cnn3-c3ccc(Cl)cc3)c2=O)c1
  PINK1 modulator: -0.6%
  ClpP mod: -1.3%
> O=C(NCc1ccccc1Cl)c1ccc(NC(=O)N2CCSc3ccccc32)cc1
  PINK1 modulator: -1.0%
  ClpP mod: 0.5%
> Cc1cc(C)cc(-n2ccnc2SCC(=O)Nc2ccc(C)cc2C)c1
  PINK1 modulator: -3.2%
  ClpP mod: 2.2%
> COc1ccccc1-c1cc(C(=O)Nc2sc3c(c2C#N)CCCC3)no1
  PINK1 modulator: 0.5%
  ClpP mod: 12%

Compounds from the list above that contain a CF3 group, in the order listed:
> Cc1cc(C)c2c(CC(=O)Nc3cc(C(F)(F)F)ccc3Cl)coc2c1
  PINK1 modulator: 1.4%
  ClpP mod: 3.0%
> O=C(NCc1cccn1Cc1ccccc1)Nc1cccc(C(F)(F)F)c1
  PINK1 modulator: 8.9%
  ClpP mod: 1.7%
> CCc1ccccc1NC(=O)CC1Sc2ccc(C(F)(F)F)cc2NC1=O (stereo not given)
  PINK1 modulator: -3.9%
  ClpP mod: 2.6%

(next part)
Results follow in this order: PINK1 modulator	ClpP mod
CCOc1ccccc1CNC(=O)c1ccc(NC(=O)N2CC(C)Sc3ccccc32)cc1 (stereo not given)
→ -1.5%	-1.4%
O=C1C(c2ccc(F)cc2)N(Cc2ccccc2Cl)C(=O)CN1C1CCCCC1 (stereo not given)
→ 7.6%	-0.9%
CCn1cc(C(=O)N2CCN(c3ccccc3OC)CC2)c(=O)c2cc(S(=O)(=O)N3CCC(C)CC3)ccc21
→ 0.7%	-2.4%
CC1=C(C(=O)Nc2ccccc2)C(c2ccc(O)cc2)n2nc(-c3ccc(Cl)cc3)nc2N1 (stereo not given)
→ 1.0%	1.6%
CCc1cnc2c(c1SCC(=O)Nc1ccc(C(=O)OC)cc1)c(=O)n(C)c(=O)n2C
→ 0.2%	0.1%
COc1ccccc1NCc1cccn1-c1nnc(N2CCCCCC2)s1
→ -2.2%	0.2%
Cc1ccc(CNC(=O)c2ccc(Cn3c(SCc4ccc(F)cc4)nc4cccnc43)cc2)o1
→ 1.9%	28µM*
CCOc1cc(/C=C(\C#N)C(=O)Nc2ccc(C)cc2)ccc1OCc1cc(=O)n2nc(CC)sc2n1
→ 4.0%	-2.7%
COc1ccc(NC(=O)C2CCN(S(=O)(=O)c3cc(-c4noc(C)n4)ccc3C)CC2)cc1
→ -0.5%	-1.9%
N#C/C(=C\c1ccc(Cl)cc1Cl)c1nc(-c2cccc(Cl)c2)cs1
→ 1.9%	-0.8%

Additional records follow:
Results follow in this order: PINK1 modulator	ClpP mod
Cc1ccc(S(=O)(=O)c2cn(CC(=O)Nc3ccc(Cl)cc3)c3ccc(F)cc3c2=O)cc1C
→ 3.0%	-2.1%
Cn1nnnc1SCCCNCc1cc(Br)ccc1OCc1ccccc1F
→ -1.2%	3.7%
COc1ccc2c(c1)CCc1c(C(=O)Nc3ccc(OC)cc3OC)noc1-2
→ -2.0%	3.9%
Cc1cccc(-c2nc3c4ccccc4n(Cc4cccc(Cl)c4)c(=O)n3n2)c1
→ -0.2%	-9.1%
COc1ccc(-n2ncc3c2ncn2nc(-c4ccc(OC)c(OC)c4)nc32)cc1
→ 1.4%	3.5%
O=C(OC[C@H]1O[C@@H](OC(=O)c2cc(O)c(O)c(OC(=O)c3cc(O)c(O)c(O)c3)c2)[C@H](OC(=O)c2cc(O)c(O)c(OC(=O)c3cc(O)c(O)c(O)c3)c2)[C@@H](OC(=O)c2cc(O)c(O)c(OC(=O)c3cc(O)c(O)c(O)c3)c2)[C@@H]1OC(=O)c1cc(O)c(O)c(OC(=O)c2cc(O)c(O)c(O)c2)c1)c1cc(O)c(O)c(OC(=O)c2cc(O)c(O)c(O)c2)c1
→ 2.1%	-6.6%
Cc1cccc(C)c1NC(=O)CN1C(=O)c2cccc3cccc1c23
→ 2.7%	-12%
O=C(CCCCn1c(=O)c2ccccc2n(Cc2ccc(Cl)cc2)c1=O)NCc1ccccc1Cl
→ 11%	-8.7%
O=C(CSc1nc2c([nH]c3ccccc32)c(=O)n1-c1cccc(Cl)c1)NCc1ccccc1
→ -4.1%	u
O=C(COc1ccccc1F)Nc1nnc(SCc2cc(=O)n3ccccc3n2)s1
→ -2.3%	-6.4%

The listing continues.
Results follow in this order: PINK1 modulator	ClpP mod
Fc1ccc(-c2cc(-c3nc(-c4ccc(Cl)cc4)no3)[nH]n2)cc1
→ -0.9%	-2.4%
O=C(Nc1cccc(F)c1F)C1CCN(c2ncccn2)CC1
→ -1.0%	-21%
CCOC(=O)N1CCC(NC(=O)c2cnn(-c3cccc(C)c3)c2C2CCN(C(=O)OC(C)(C)C)CC2)CC1
→ -0.3%	0.4%
Cc1c(C(=O)NCc2cccc(Cl)c2)sc2ncnc(N(C)C3CCCCC3)c12
→ 2.7%	u
CC(=O)c1c(C)n(-c2ccc(Cl)cc2)c2ccc(OC(=O)COc3ccccc3)cc12
→ -0.6%	-1.7%
COc1ccc(CCNC(=O)CCCCn2c(=O)c3ccccc3n(CC(=O)Nc3ccccc3C)c2=O)cc1OC
→ 1.8%	-0.2%
COc1ccc(CCNc2nc3cc(OC)c(OC)cc3c3nc(-c4cccnc4)nn23)cc1OC
→ -0.6%	-2.3%
CCOC(=O)[C@]12CCC=C1N(Cc1cccc3ccccc13)C(=O)[C@H](CC(=O)NCc1ccc(C)o1)C2
→ -0.8%	-11%
COc1ccc(CCN2C(=O)c3ccccc3C2c2nnnn2-c2c(C)cccc2C)cc1OC (stereo not given)
→ 0.3%	-2.7%
CCOc1ccc(/C=C/c2nc(C#N)c(N3CCN(CC)CC3)o2)cc1
→ 5.9%	4.5%
CCOC(=O)c1cc2c(=O)n3ccccc3nc2n(CCOC)c1=NC(=O)C(C)(C)Oc1ccc(Cl)cc1
→ 2.0%	-19%

Of the compounds above, these have an aryl methoxy group:
Results follow in this order: PINK1 modulator	ClpP mod
CCOC(=O)c1c(C)[nH]c(CCC(=O)NCc2cccc(OC)c2)c1C
→ -0.4%	-0.5%
COc1ccc(-c2nc3scc(CCNS(=O)(=O)c4ccc(F)cc4F)n3n2)cc1OC
→ 2.0%	-3.7%
COc1cccc(CNC(=O)c2nc(Cn3nc(C)c(Br)c3C)no2)c1
→ -0.7%	-2.7%
COc1ccc(CNC(=O)CCc2nc(-c3ccc(C)cc3)no2)c(OC)c1
→ -1.0%	0.1%
COc1ccccc1-c1cc(C(=O)Nc2sc3c(c2C#N)CCCC3)no1
→ 0.5%	12%
CCn1cc(C(=O)N2CCN(c3ccccc3OC)CC2)c(=O)c2cc(S(=O)(=O)N3CCC(C)CC3)ccc21
→ 0.7%	-2.4%
COc1ccccc1NCc1cccn1-c1nnc(N2CCCCCC2)s1
→ -2.2%	0.2%
COc1ccc(NC(=O)C2CCN(S(=O)(=O)c3cc(-c4noc(C)n4)ccc3C)CC2)cc1
→ -0.5%	-1.9%
COc1ccc2c(c1)CCc1c(C(=O)Nc3ccc(OC)cc3OC)noc1-2
→ -2.0%	3.9%
COc1ccc(-n2ncc3c2ncn2nc(-c4ccc(OC)c(OC)c4)nc32)cc1
→ 1.4%	3.5%
COc1ccc(CCNC(=O)CCCCn2c(=O)c3ccccc3n(CC(=O)Nc3ccccc3C)c2=O)cc1OC
→ 1.8%	-0.2%
COc1ccc(CCNc2nc3cc(OC)c(OC)cc3c3nc(-c4cccnc4)nn23)cc1OC
→ -0.6%	-2.3%
COc1ccc(CCN2C(=O)c3ccccc3C2c2nnnn2-c2c(C)cccc2C)cc1OC (stereo not given)
→ 0.3%	-2.7%

Some of the compounds tested; rates above refer to the full screens.
